From PubChem
HPGD block: HPGD (human) dehydrogenase inhibition; P15428; Potency, µM, without a hit: at the top dose activity change, negative = inhibition, actives largely listed as inhibitors; 150,000 tested, 4.3% active; AID 894; purified HPGD, NADH fluorescence kinetic, PGE2 substrate; active = well fitted inhibition curve with a large enough effect (not every such curve was filed as active); inconclusive = small, poorly fitted or top-dose-only effect, or another doubt; inactive = no such curve, though single readings can be large or run the other way;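 also: top concentration of the series not given in the record; plate controls included wells without enzyme; inactives centre near -10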
Target sequence (P15428 whole entry, looked up): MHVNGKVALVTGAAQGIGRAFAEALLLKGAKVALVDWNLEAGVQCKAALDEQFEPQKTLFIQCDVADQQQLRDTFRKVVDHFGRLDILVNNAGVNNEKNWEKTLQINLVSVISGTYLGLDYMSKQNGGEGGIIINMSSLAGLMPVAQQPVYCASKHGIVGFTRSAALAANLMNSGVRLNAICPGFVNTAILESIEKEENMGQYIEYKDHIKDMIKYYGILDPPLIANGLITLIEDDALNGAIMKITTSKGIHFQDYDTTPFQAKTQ
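NADH formation kinetics: reaction with 30 uM PGE2 and 1 mM NAD+ (final), 20 nM enzyme, Tris-HCl pH 8 with Tween 20, after 15 min compound preincubation at room temperature. Fluorescence change, last versus first of five reads.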
* = called active by the depositor; ? = inconclusive; & = joins results of further samples. % is scaled to controls: 0 for no effect and ±100 for the full control effect; potency is read from the fitted curve at half-maximal effect.

The opening three records, ahead of the listing:
SMILES	HPGD block
COc1cc2c(cc1OC)C(c1ccc3c(c1)OCO3)C1=C(CC(C)(C)CC1=O)N2 (configuration not stated)	?
Cc1cccc(C)c1NC(=O)CNc1ncnc2sc(C)c(C)c12	-2%
Cc1ccc(-c2nnc(SCC(=O)Nc3nc4c(s3)CCCC4)n2C)cc1	1%

The list itself, from the first entry:
SMILES	HPGD block
COc1cc2c(cc1OC)C(c1ccc3c(c1)OCO3)C1=C(CC(C)(C)CC1=O)N2 (configuration not stated)	?
Cc1cccc(C)c1NC(=O)CNc1ncnc2sc(C)c(C)c12	-2%
Cc1ccc(-c2nnc(SCC(=O)Nc3nc4c(s3)CCCC4)n2C)cc1	1%
N#Cc1c2c(nc(N)c1-c1ccccc1)CCCCC2	?
COC(=O)C1=CNC=C(C(=O)OC)C1c1ccccc1Cl	?
CN(CCC#N)CC(=O)Nc1ccc(NC(=O)CN(C)CCC#N)cc1	?
Cn1c(SCC(=O)NCc2ccco2)nnc1-c1ccc(S(=O)(=O)N2CCOCC2)cc1	-2%
CCOC(=O)N1CCC(c2cc(=O)n3[nH]c(C)c(-c4ccc(F)cc4)c3n2)CC1	?
CCOc1ccc(/C(O)=C2/C(=O)C(=O)N(c3cc(C)on3)C2c2ccc(C(=O)OC)cc2)cc1 (configuration not stated)	-15%
CCOC(=O)C(=O)Nc1ccc([N+](=O)[O-])cc1OC	-20%
COc1ccccc1N1CCN(CCCCNC(=O)c2ccc(-c3ccc(C(C)=O)cc3)cc2)CC1	-6%
Cc1cc(C)c(NC(=O)COC(=O)c2cccc3c2C(=O)c2ccccc2C3=O)c(C)c1	-6%
C/C(=N\NC(=O)CNC(=O)C(c1ccccc1)c1ccccc1)c1ccc(C(C)(C)C)cc1	-12%
CC(C)CC(COCc1ccc(Cl)cc1)N1CCN(C(=O)c2ccc(C(F)(F)F)cc2)CCC1=O (configuration not stated)	-9%
CC1=C(C(=O)Nc2ccc(F)c(F)c2)C(c2cccs2)NC(=S)N1 (configuration not stated)	-6%
COC(=O)c1ccc(C)c(NS(=O)(=O)c2ccc3c(c2)OCCO3)c1	-1%
CCCC(O)(CCC)C(=O)NN1CCCCC1	-17%
CCCc1nc2ccccc2c(C(=O)OCC(=O)N2CCc3ccccc32)c1CC	-13%
CC(C)c1nc(SCc2c(F)cccc2Cl)c2c(=O)n(C)c(=O)n(C)c2n1	-5%
COc1ccc(CNC(=O)C(c2ccc(C)o2)N(C(=O)c2csnn2)c2ccc(C(C)C)cc2)cc1 (configuration not stated)	-11%
Cc1cc2c(c(=O)n1C)C(Cc1ccccc1)C(C#N)=C(N)O2 (configuration not stated)	?
O=C(O)c1cc(=O)c2cccc(O)c2[nH]1	-9%&-21%
COc1cc2cc(CN(Cc3nnnn3C3CCCC3)C3CCCC3)c(=O)[nH]c2cc1OC	-14%
Cc1ccc(-c2nnc(N3CCCCC3)c3ccccc23)cc1S(=O)(=O)NCC1CCCO1 (configuration not stated)	-18%
COC(=O)C(C)N(C(=O)c1cccc2ccccc12)c1c(C)cccc1C (configuration not stated)	2%
Cc1ccccc1N(CC(=O)Nc1ccccc1C(=O)O)S(C)(=O)=O	-10%
COc1ccccc1C(=O)Nc1cccc(N(C)S(C)(=O)=O)c1	-14%
O=c1[nH]c(=O)n(-c2ccccc2)c2c1C(C(F)(F)F)(C(F)(F)F)N=C(CCC1CCCCC1)N2	?
Cc1occc1C(=O)Nc1cccc(Cn2cccn2)c1	-5%
O=C(CSc1nc(O)cc(=O)n1-c1ccccc1)N1CCCCC1	-5%
CC(Nc1oc(-c2ccccc2)nc1-c1ccc(C(F)(F)F)cc1)c1ccccc1 (configuration not stated)	-10%
O[C@@H]1[C@@H](OCc2ccccc2)OC[C@H](O)[C@@H]1O	-2%
COc1cccc(-c2cc(C(=O)N/N=C/c3ccccc3O)[nH]n2)c1	-3%
CCn1c(SCCC(=O)O)nnc1-c1cccnc1	-4%
Cc1nc(SCC(=O)Nc2ccc(N3CCOCC3)cc2)nc(C)c1C	-19%
Cc1ccc(-c2c(C)c(-c3ccc(F)cc3)nc(N)c2C#N)o1	-27%
COCCNC(=O)C1CCCN(c2nn3c(=O)cc(C)nc3s2)C1 (configuration not stated)	-10%
COC(=O)[C@@]1(Cc2ccc(OC)cc2)[C@@H]2C(=CC(=O)[C@H]2CC(=O)C(=O)N(C)C)CN1C(=O)c1ccccc1	-1%&-13%
N#CCC(CNc1ncc(C(F)(F)F)cc1Cl)OC(=O)c1ccc(Cl)cc1 (configuration not stated)	-9%
Cc1ccc(OCC(O)CN2C(=O)NC(C)(C)C2=O)cc1 (configuration not stated)	0%
Cc1nn(-c2ccccc2)c(C)c1/C=N/NC(=O)c1cc(-c2ccc(Cl)s2)[nH]n1	-10%
CCCCCOc1ccc(/C=C/C(=O)NCCc2nc3ccccc3[nH]2)cc1OC	?
CCn1c(-c2cccc(Cl)c2)n[nH]c1=S	-6%
CC(=O)Oc1ccc2c(c1)c(C(C)=O)c(C)n2C	-12%
CCC(=O)Nc1ccc2oc(-c3ccccc3Br)nc2c1	?
CC(=O)c1c(C(C)=O)c(C)n(-c2ccc(C(=O)O)cc2)c1C	-30%
Cc1ccc(Cn2ccc(NC(=O)c3cc4nc5c(c(C(F)(F)F)n4n3)CCc3ccccc3-5)n2)cc1	0%
COc1ccc(-c2c3c(=O)n(C)c(=O)n(C)c3cn2Cc2ccccn2)cc1	-6%
Cc1cccc(N2CCN(C(=O)c3cc4c(=O)n(C)c5ccccc5c4n3C)CC2)c1C	-14%
Cc1cc(=O)oc2c(CN3CCCCC3)c(O)c(Cl)cc12	?
O=C(NCc1ccc(N2CCCC2=O)cc1)c1cnccn1	-18%
CSc1nc(Oc2ccc3ccccc3c2)c2sccc2n1	-13%
NNC(=O)c1cc(Cl)ccc1Cl	-2%
CC[n+]1c(S(=O)(=O)[O-])ccc2ccc(C)cc21	-17%
COCCCNC(=O)c1ccccc1NS(C)(=O)=O	?
O=C(COC(=O)c1ccc2c(c1Cl)C(=O)c1ccccc1C2=O)NC1CC1	7.9µM*
COc1ccc(NC(=O)C2CCN(S(=O)(=O)c3ccc(Br)s3)CC2)cc1OC	-4%
COc1ccc(C(=O)CSc2nnc(COc3ccc(C#N)cc3)n2-c2ccccc2)cc1	-5%
CCOC(=O)c1c(C)[nH]c(C)c1C(=O)CSc1nc2ccccc2n1CCC#N	-3%
CCc1c(C(=O)NCc2ccccc2Cl)[nH]c(C)c1C(C)=O	-3%

Other compounds
SMILES	HPGD block
COc1ccc(C2CC(=O)Oc3cc(C)cc(C)c32)cc1 (configuration not stated)	-11%
Brc1[nH]nc2ccccc12	-16%
Cn1cccc1CNC(=O)Nc1ccc(Cl)cc1	-8%
Cc1nc2cnc(N3CCNCC3)nc2n(Cc2ccc(F)cc2)c1=O	?
O=C1/C(=C/c2cccs2)SC(=S)N1c1ccccc1	-7%
Cc1ccc(C(c2nnnn2CC2CCCO2)N2CCN(C(=O)c3ccco3)CC2)cc1 (configuration not stated)	-3%
O=C(CCNC(=O)c1ccccc1)OCN1C(=O)c2ccccc2C1=O	-17%
O=C(Nc1ccc2c(c1)OCO2)c1ccc(Cl)nc1	-4%
Cn1cc(C2=C(c3ccc(Cl)cc3Cl)C(=O)NC2=O)c2ccccc21	3%&-1%
CC1CC[C@@]2(OC1)OC1CC3C4CC=C5CC(O)CC[C@@]5(C)C4CC[C@]3(C)C1C2C (some centres not stated)	-7%
Cc1ccccc1S(=O)(=O)Nc1cccnc1	4%
N#Cc1cc(C(=O)c2ccccc2OCC(=O)Nc2ccccc2Cl)cn(C2CCCCC2)c1=O	-9%

(listing goes on)
structure,HPGD block
COc1ccc(C2C(C#N)=C(N)Oc3cc(C)[nH]c(=O)c32)c(OC)c1OC (configuration not stated),0%
C/C(Cl)=C/Cn1c(SCC(C)C)nc2c1c(=O)[nH]c(=O)n2C,-17%
COCCCNC(=O)CN(c1ccc(OC)cc1)S(=O)(=O)c1ccc(NC(C)=O)cc1,-12%
CCCCNC(=O)CC1N=C2c3ccccc3N=C(SCC(=O)Nc3ccccc3OC)N2C1=O (configuration not stated),-14%
CCN(C(=O)CN(C)Cc1cccc(Cl)c1Cl)c1c(N)n(Cc2ccccc2)c(=O)[nH]c1=O,-15%
Cc1ccccc1C(=NCCCN(C)C)c1ccccc1C,0%
COc1ccc(Cl)cc1S(=O)(=O)n1ccnc1C(C)C,-7%
O=C(c1ccc(Br)s1)N1CCN(Cc2ccc3c(c2)OCO3)CC1,-1%
CCc1cccc2c(C#N)cn(CC(=O)NCc3ccco3)c12,-16%
Cn1c(=O)c2cc(S(=O)(=O)Nc3ccc4c(c3)OCO4)ccc2n(C)c1=O,-21%
CCC(CC)C(=O)N(c1ccc(F)cc1)C1C=CS(=O)(=O)C1 (configuration not stated),4%
CC1CCCCN1C(=O)c1cc(Cl)ccc1[N+](=O)[O-] (configuration not stated),-6%
COc1ccc(-c2cc(C(F)(F)F)n3nc(N)nc3n2)cc1,?
Cc1ccc(-c2csc(=Nc3cccnc3)n2CCCN2CCCC2=O)cc1C,-11%
CSc1nc2ccc(S(=O)(=O)N3CCCCC3)cc2s1,-1%
COc1cccc(CC(NC(C)=O)C(=O)NC2CCN(c3c(Cc4ccccc4)c(C)nc4ncnn34)CC2)c1 (configuration not stated),?
Cc1ccc(-c2csc(NC(=O)c3cccc(N4C(=O)CCC4=O)c3)n2)o1,?
Cc1ccc(C)c(Cn2c(=O)c3c(nc4n3CCN4Cc3ccco3)n(C)c2=O)c1,-17%
O=C(NC1CCCCCC1)C1CCN(S(=O)(=O)c2cccc3cccnc23)CC1,-5%
CC(C)c1ccc(OCc2nc(-c3ccccn3)no2)c(Br)c1,?
NC(=O)Nn1c(CCC(=O)O)ccc1-c1ccc(Br)cc1,-20%
Cc1cccc(NC(=O)CSc2nc3nc4c(cc3c(=O)n2-c2ccccc2)CCCC4)c1,-25%
COc1ccc(-c2coc3cc(OC)cc(O)c3c2=O)cc1,-18%
O=C(Nc1ccc(-c2noc(-c3cccs3)n2)cc1)c1cccnc1,-27%
Cc1noc(/C=C/c2ccco2)c1S(=O)(=O)N1CCC(C(=O)Nc2ccc(Cl)cn2)CC1,?
COCCNC(=O)C1(CC(C)C)C=CCN1C(=O)c1ccccc1 (configuration not stated),-8%
O=P(CCC(F)(F)F)(CCC(F)(F)F)CCC(F)(F)F,2%
Cn1nnnc1SCC(=O)Nc1c(Cl)cccc1Cl,22µM*
COc1ccccc1CN(CC(=O)NCc1ccco1)C(=O)CNS(=O)(=O)c1ccc(C)cc1,3%
Oc1ccc(C2=NNC(=NCc3ccc4c(c3)OCO4)SC2)c(O)c1,?
COc1cccc(NS(=O)(=O)c2ccc3[nH]cc(C(=O)NCCC(C)C)c(=O)c3c2)c1,-15%
O=C(c1cc2ccccc2c(=O)o1)N1CCCCCC1,18µM*
COc1ccc(C(=O)N2CCC3(CCCN(C)C3)CC2)cc1,-7%
CC(NC(=O)Cn1ncc(Cl)c(Cl)c1=O)C12CC3CC(CC(C3)C1)C2 (configuration not stated),-2%
CN(C)c1ccc(-c2nc(N3CCNCC3)c3ccccc3n2)cc1,-18%
Cc1cc(C(=O)CSc2nnc(N)s2)c(C)n1-c1c(C)n(C)n(-c2ccccc2)c1=O,1%
COC(=O)CCC(C)C1CCC2C3CC[C@H]4CC(O)CC[C@@]4(C)C3CC(O)[C@]12C (some centres not stated),-12%
O=C(CCS(=O)(=O)c1ccc(Br)cc1)N1CCN(c2ccc(Cl)cc2)CC1,1%
Cc1nc2ccc(S(=O)(=O)NC(C(=O)Nc3nc4ccc(Cl)cc4s3)C(C)C)cc2s1 (configuration not stated),-1%
Cc1cc(N2CCN(C3CCCCC3)CC2)nc2cccc(O)c12,-13%
O=C(Nc1ccc(Cl)cc1)c1cccs1,-27%
Cc1ccc(C)c(N2CCN(C(=O)CCCn3c(=S)[nH]c4cc5c(cc4c3=O)OCO5)CC2)c1,-22%
COc1cc(-c2nc3ccc(C)cn3c2Nc2ccc3c(c2)OCCO3)ccc1O,?
Cc1ncc([N+](=O)[O-])n1CCOC(=O)NC(NCc1cccnc1)C(Cl)(Cl)Cl (configuration not stated),1%
COc1ccc(CC(=O)n2c(CC#N)nc3ccccc32)cc1OC,-23%
COC(=O)c1sccc1-c1ccc(C(=O)Nc2cccc(Cl)c2)o1,?
c1ccc(COc2ccc(OCCCN3CCCCC3)cc2)cc1,-1%
CCN(CC(=O)NC(C)C)Cc1nc2sc3c(c2c(=O)[nH]1)CCC3,-2%
CCOC(=O)N1CCN(S(=O)(=O)c2c(C)nn(C)c2C)CC1,-4%
C=C(C)CSc1nc2ncccc2[nH]1,?

Some of these compounds in order of molar mass, lowest first.
structure,HPGD block
C=C(C)CSc1nc2ncccc2[nH]1,?
O=C(c1cc2ccccc2c(=O)o1)N1CCCCCC1,18µM*
COc1ccc(C(=O)N2CCC3(CCCN(C)C3)CC2)cc1,-7%
Cn1nnnc1SCC(=O)Nc1c(Cl)cccc1Cl,22µM*
Cc1cc(N2CCN(C3CCCCC3)CC2)nc2cccc(O)c12,-13%
CC(NC(=O)Cn1ncc(Cl)c(Cl)c1=O)C12CC3CC(CC(C3)C1)C2 (configuration not stated),-2%
Cc1cc(C(=O)CSc2nnc(N)s2)c(C)n1-c1c(C)n(C)n(-c2ccccc2)c1=O,1%

Other records:
structure,HPGD block
Cc1cccc2c1Sc1ccccc1CC2=O,-22%
Cc1cc(C)nc(Nc2n[nH]c(COc3ccccc3)n2)n1,1%
C=CCn1c(SCC(=O)Nc2ncc(Cc3cc(C(F)(F)F)ccc3Cl)s2)nnc1-c1ccncc1,-10%
O=C(Nc1cnc2ccccc2c1)c1cccnc1,-1%
CCc1ccc(C(=O)COC(=O)CNC(=O)c2cccs2)cc1,-9%
CCN1CCN(C(=S)NCc2ccc(C)cc2)CC1,-7%

Some of the compounds tested (hit frequency here may not be typical).
